GIRK2 activ – activators of human GIRK2 potassium channels; HEK293-GIRK2 thallium flux, Thallos fluorescence; calls only for hits at 25 µM; 63,000 compounds, 0.05% hits; AID 1259325;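 active means among the strongest 0.2% of first-round signals and kept after retests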;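 further: first round at about 10 µM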
Target sequence (P48051 whole entry, looked up): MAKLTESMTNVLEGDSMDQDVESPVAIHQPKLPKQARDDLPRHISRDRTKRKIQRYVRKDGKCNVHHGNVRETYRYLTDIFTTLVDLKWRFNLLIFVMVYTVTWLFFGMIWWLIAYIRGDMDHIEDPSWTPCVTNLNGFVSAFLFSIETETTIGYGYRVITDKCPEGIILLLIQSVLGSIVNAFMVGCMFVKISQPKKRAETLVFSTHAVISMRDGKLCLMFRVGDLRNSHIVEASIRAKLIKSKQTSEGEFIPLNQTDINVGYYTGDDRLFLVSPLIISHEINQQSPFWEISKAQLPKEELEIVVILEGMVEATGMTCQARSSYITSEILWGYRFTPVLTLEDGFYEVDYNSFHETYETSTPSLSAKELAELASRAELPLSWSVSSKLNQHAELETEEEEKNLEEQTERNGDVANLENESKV
Calls only; i = inactive. Not all compounds are listed; rates above refer to the full screens.

cpd	structure	GIRK2 activ
1	Cc1cc(C)c(S(=O)(=O)N2CCc3nc(NC(=O)c4ccccn4)sc3C2)c(C)c1	i
2	C=CCN(CC=C)S(=O)(=O)c1ccc(C(=O)Nc2ccc(Cl)c3ncsc23)cc1	i
3	CC(C)(C)NC(=O)Cn1cccc(S(=O)(=O)N2CCCC2)c1=O	i
4	COc1cccc(C(=O)N2CCN(c3nc4ccc(S(C)(=O)=O)cc4s3)CC2)c1	i
5	Cc1ccc(-c2ccc(N3CCN(S(=O)(=O)/C=C\c4ccccc4)CC3)nn2)c(C)c1	i
6	CCCCOc1ccc(C(=O)NCCc2nc(C)cc(C(F)(F)F)n2)cc1	i
7	O=C(O)CCCCCCCCCCCNC(=O)NC1CCCCC1	i
8	NS(=O)(=O)c1ccc(CCNC(=O)c2cc(=O)c(OCc3ccccc3)co2)cc1	i
9	COc1ccccc1C(=O)N1CCCC(c2nnc(-c3cccs3)o2)C1 (configuration not stated)	i
10	CCc1ccc(-c2cc3c(=O)[nH]nc(SCc4nc(-c5ccccc5OC)no4)n3n2)cc1	i
11	COc1ccc(-c2cc3c(SCC(=O)Nc4ccc(Br)cc4F)nccn3n2)cc1	i
12	Cc1cnc2c(c1NCCc1ccc(S(N)(=O)=O)cc1)c(=O)n(C)c(=O)n2C	i
13	O=C(/C=C/c1cccs1)N1CCC(Oc2ccc(Cl)cn2)CC1	i
14	Cc1ccc(S(=O)(=O)N2CCC(c3nc(-c4ccc(C(F)(F)F)cc4)no3)CC2)cc1C	i
15	CC(C)c1cc(-c2nc(-c3cccc(Cl)c3)no2)n[nH]1	i
16	Cc1ccc(Nc2c(C(=O)N3CCOCC3)cnc3ccccc23)cc1C	i
17	O=C(Cc1cccc2ccccc12)N1CCN(C(=O)C2CC2c2ccccc2)CC1 (configuration not stated)	i
18	COc1ccccc1S(=O)(=O)N1CCC(Oc2nc3c(F)cc(F)cc3s2)CC1	i
19	COc1ccc(S(=O)(=O)N2CCCOC2CNC(=O)C(=O)NCc2ccccc2)cc1OC (configuration not stated)	i
20	COc1ccc(NC(=O)CSc2ncc(S(=O)(=O)c3ccc(C)cc3C)c(=O)[nH]2)cc1	i
21	Cc1cn2c3c(=O)n(CCc4ccccc4)c(=O)n(C)c3nc2n1CCCN1CCOCC1	i
22	COc1ccccc1/C=C1/SC(=S)N(c2ccc3ccccc3c2)C1=O	i
23	O=C(CSc1nnc2scc(-c3ccccc3)n12)Nc1ccc(F)c(Cl)c1	i
24	CCn1cnc2c(-c3ccccc3)cn(CC(=O)Nc3cc(Cl)ccc3C)c2c1=O	i
25	CC(C)C(=O)Nc1c(-c2ccccn2)nsc1C(=O)NCCC1=CCCCC1	i
26	O=S(=O)(Cc1cc(F)cc(F)c1)N(Cc1ccccn1)Cc1ccco1	i
27	COc1cccc(-n2ccc(=O)c(-c3nc(-c4ccc(Cl)c(F)c4)no3)n2)c1	i
28	CCCOc1ccc(C2NC(=O)NC(C)=C2C(=O)OCCSCC)cc1 (configuration not stated)	i
29	Cc1ccc(NC(=O)C2CCN(c3nccn4nc(-c5ccccc5)cc34)CC2)cc1	i
30	COCCN1CCC(CNC(=O)c2cc(-c3cc(OC)ccc3OC)nn2C)CC1	i
31	O=S(=O)(c1cccc(C(F)(F)F)c1)N1CC(c2nc(-c3ccccn3)no2)C1	i
32	O=C(c1cc(=O)c(OCc2ccccc2)co1)N1CCN(c2ccccc2Cl)CC1	i
33	O=C(Cn1ccnc1-c1ccnc(N2CCSCC2)c1)NCc1ccc(F)cc1	i
34	C[C@H]1CC[C@@]2(OC1)O[C@H]1CC3C4CC=C5C[C@@H](O)C[C@@H](O[C@@H]6O[C@@H](C)[C@H](O)[C@@H](O)[C@H]6O)[C@]5(C)C4CC[C@]3(C)[C@H]1[C@@H]2C (some centres not stated)	i
35	COc1ccc(S(=O)(=O)N2CCN(c3ccc(Cl)c(Cl)c3)CC2)cc1	i
36	CCc1ccccc1N1C(=O)N(c2ccc(OC)cc2)C2CS(=O)(=O)CC21 (configuration not stated)	i
37	CC(=O)Cn1c(=O)c2c(nc3n2CCCN3C2CCCCC2)n(C)c1=O	i
38	COc1cccc(S(=O)(=O)NCc2sc(-c3cccs3)nc2C)c1	i
39	CCCCOC(=O)c1ccc(NC(=O)c2cc(=O)c(OC)c[nH]2)cc1	i
40	CSc1cccc(NC(=O)C(=O)NCc2cc(C)oc2C)c1	i
41	CC(Nc1ncc2c(=O)n(-c3ccccc3)c(=O)[nH]c2n1)c1cccs1 (configuration not stated)	i
42	Nc1c(C(=O)NCc2cccs2)c2nc3ccccc3nc2n1/N=C\c1ccco1	i
43	Cc1nc(-n2nc(C3CC3)cc2NC(=O)c2ccc(S(=O)(=O)N3CCCCC3)cc2)[nH]c(=O)c1C	i
44	COc1cccc(C(=O)Nc2nc(-c3ccc4c(c3)N(C)C(=O)C(C)O4)cs2)c1 (configuration not stated)	i
45	O=C(NCCc1ccc(Cl)cc1)c1nnn(Cc2cccc(F)c2)c1-n1cccc1	i
46	CCn1nccc1C(=O)NCCOc1ccc(F)cc1	i
47	COC(=O)c1sccc1S(=O)(=O)N1CCC(C(=O)NCc2nc(C)no2)CC1	i
48	N#C/C(=C\c1ccccc1)c1nc2ccccc2s1	i
49	COc1cc(OC)cc(-c2noc(CCn3nc(-c4ccc5c(c4)OCO5)ccc3=O)n2)c1	i
50	O=C(Cc1ccc(NS(=O)(=O)Cc2cc(F)ccc2F)cc1)N1CCCC1	i
51	CCOC(=O)c1sc2ccccc2c1S(=O)(=O)Nc1ccc2c(c1)OCO2	i
52	COC(=O)c1ccc(NC(=O)C(=O)NCc2ccc3c(c2)OCO3)cc1	i
53	COc1cccc2c(SCC(=O)Nc3cccc(F)c3)nccc12	i
54	Cn1nc(-c2cccs2)cc1C(=O)N1CCN(c2ccc(C(F)(F)F)cn2)CC1	i
55	C=CCn1c(=O)c2c(nc3n2CCN3c2ccc(C)c(Cl)c2)n(C)c1=O	i
56	COc1nn(C)cc1C(=O)N1CCN(CC(=O)c2ccco2)CC1	i

The results go on:
cpd	structure	GIRK2 activ
57	CCCc1nc2c(c(=O)c3ccccc3n2C)c(=O)n1Cc1ccccc1	i
58	Cc1ccc(C)c2sc(N(C)CC(=O)Nc3ccc4c(c3)OCCO4)nc12	i
59	O=C(Cc1ccccc1Cl)NCC1CCN(C(=O)Oc2ccccc2)CC1	i
60	COCc1ccc(C(=O)Nc2cc(C)nc3c(C)cc(C)cc23)o1	i
61	CNC(=O)CN1CCC(c2nn(C)c(=O)n2-c2ccccc2)CC1	i
62	CC(Oc1ccccc1)C(=O)Nc1cc(N2CCCCC2)ncn1 (configuration not stated)	i
63	CC1(C)OCC2(CO1)CN(C(=O)c1ccc(Cn3ccnc3)cc1)C2	i
64	COc1ccc(CC(=O)Nc2ccc(Cn3cnc(C(=O)Nc4ccc(C)c(Cl)c4)c3)cc2)cc1	i
65	COc1ccc(S(=O)(=O)NCC(c2ccsc2)N2CCCCCC2)cc1 (configuration not stated)	i
66	CCCc1cnc2c(c1SCC(=O)Nc1ccc(OCC)cc1)c(=O)n(C)c(=O)n2C	i
67	COC(=O)c1sccc1S(=O)(=O)N(CC(=O)Nc1ccccc1F)c1ccc(C)c(C)c1	i
68	NC(=O)c1ccccc1NC(=O)CCc1csc(NC(=O)c2ccc[nH]c2=O)n1	i
69	OC(c1ccccc1)c1nc2ccccc2n1Cc1ccc(Cl)cc1Cl (configuration not stated)	i
70	COc1ccccc1NC(=O)CSC1=NS(=O)(=O)c2ccccc2N1	i
71	O=[N+]([O-])c1ccc2sc(OCCN3CCOCC3)nc2c1	i
72	CCc1ccc(N2CCCn3c2nc2c3c(=O)n(CCN3CCOCC3)c(=O)n2C)cc1	i
73	COc1ccc(/C=C/C(=O)O[C@@H]2[C@@H](O[C@@H]3O[C@H](CO)[C@@H](O)[C@H](O)[C@H]3O)[C@@H](O)[C@H](O[C@H]3C4C=CO[C@@H](O[C@@H]5O[C@H](CO)[C@@H](O)[C@H](O)[C@H]5O)C4[C@@]4(CO)O[C@@H]34)O[C@H]2C)cc1 (some centres not stated)	i
74	COc1cccc(CNC(=O)Cn2cnc3c(-c4ccc(C)cc4)nsc3c2=O)c1OC	i
75	O=C(Cn1c(=O)nc(-c2ccccc2)c2cc(Cl)ccc21)Nc1ccc2c(c1)OCCO2	i
76	CSc1nc2n(n1)C(c1cccs1)C(C(=O)Nc1ccccc1)C(C)N2 (configuration not stated)	i
77	O=C(CSc1nc(CC(=O)Nc2nc(-c3ccco3)cs2)cs1)Nc1ccc(F)cc1	i
78	Cn1cccc(C(=O)NCC2(c3ccc(F)cc3)CC2)c1=O	i
79	Cn1c(=O)c2c(nc(N3CCCCC3)n2CC(=O)c2ccccc2)n(C)c1=O	i
80	O=C(NCCC(O)C1CC1)C(=O)NCc1ccc(F)cc1 (configuration not stated)	i
81	Cc1ccc2c(c1)c(=O)c(S(=O)(=O)c1ccc(F)cc1)cn2CC(=O)Nc1ccc(Cl)cc1	i
82	COc1cccc2cc(C(=O)N3CCC(Cn4c(C(F)(F)F)nc5ccccc54)CC3)c(=O)oc12	i
83	CC(C)(C)c1ccc(NC(=O)N2CCC(Oc3cnccn3)CC2)cc1	i
84	Cn1cccc(C(=O)N2CC3(COC(C)(C)OC3)C2)c1=O	i
85	CC(=O)c1cccc(NC(=O)CN(C)c2nc3c(C)ccc(C)c3s2)c1	i
86	O=C(NCCc1ccccc1)NCCC(O)c1ccccc1 (configuration not stated)	i
87	COc1cccc(S(=O)(=O)Nc2cccc(C(=O)N3CCC(Cc4ccccc4)CC3)c2)c1	i
88	CCOc1ccc(S(=O)(=O)NCCn2ncccc2=O)cc1	i
89	COC(=O)c1ccc2c(=O)n(CCO)c(=S)[nH]c2c1	i
90	COc1ccccc1N1CCN(c2nccnc2SCC(=O)Nc2cccc(C(C)=O)c2)CC1	i
91	Cc1cc(O)cc(C)c1/C=C/c1cncc(C(=O)N(C)C)c1	i
92	CN(C)CC1COCCN1C(=O)c1cc2ccccc2o1 (configuration not stated)	i
93	O=C(NCCn1ccc(C(F)(F)F)n1)c1cc(C2CC2)on1	i
94	Cc1ccc2sc(NC(=O)CN3C(=O)c4ccccc4C3=O)nc2c1C	i
95	CC(Cc1ccco1)NC(=O)CN1C(=O)CCC1=O (configuration not stated)	i
96	CCc1ccc(S(=O)(=O)NCC2CCN(C(C)C)CC2)cc1	i

Of the compounds above, 2 have a tert-butyl group:
cpd	structure	GIRK2 activ
3	CC(C)(C)NC(=O)Cn1cccc(S(=O)(=O)N2CCCC2)c1=O	i
83	CC(C)(C)c1ccc(NC(=O)N2CCC(Oc3cnccn3)CC2)cc1	i

(further entries)
cpd	structure	GIRK2 activ
97	Cc1cccc(NC(=O)C(=O)NCCN2CCN(c3ccccc3)CC2)c1	i
98	O=C(Nc1ccc(F)c(Cl)c1)C1CCN(C(=O)NCc2cccs2)CC1	i
99	CC(=O)c1ccc(N2CCN(C(=O)C3CCN(S(=O)(=O)N4CCCC4)CC3)CC2)cc1	i
100	Cc1cc(NC(=O)CCCN2C(=O)c3ccccc3C2=O)sn1	i
101	COc1ccc(Cl)cc1C(=O)Nc1nc(CN2CCc3ccccc3C2)cs1	i
102	COc1ccc(-c2nc(-c3cn(-c4cccc(Cl)c4)nn3)no2)cc1OC	i
103	COc1cc(OC)cc(-c2noc(Cn3c(=O)n(CC(C)C)c(=O)c4ccccc43)n2)c1	i
104	COc1ccc(-c2c(NC(=O)c3ccccc3)oc3ccccc3c2=O)cc1OC	i
105	O=C(CCC1NC(=O)c2ccccc2NC1=O)Nc1ccc2c(c1)OCCO2 (configuration not stated)	i
106	Cc1ccc(S(=O)(=O)N2CCN(c3ccc(F)cc3)CC2)cc1	i
107	O=C(Cc1ccccc1Cl)NCCOc1cc(N2CCCCC2)ncn1	i
108	O=C(Nc1ccc2c(c1)CCCN2C(=O)c1ccccc1)c1ccc2c(c1)OCO2	i
109	COc1ccc(NC(=O)c2cc(Br)ccc2Cl)cc1N1CCCC1=O	i
110	COc1ccc(S(=O)(=O)N2CCCOC2CNC(=O)C(=O)NCCC(C)C)cc1C (configuration not stated)	i
111	Cc1nn(-c2ccc(F)cc2)c2ncc(C(=O)NCc3ccccc3Cl)c(Cl)c12	i
112	O=C(c1c(F)cccc1F)N1CCN(c2cc(-n3cccc3)ncn2)CC1	i

Looked up by compound from the entries so far, 4 records:
cpd	structure	GIRK2 activ
112	O=C(c1c(F)cccc1F)N1CCN(c2cc(-n3cccc3)ncn2)CC1	i
81	Cc1ccc2c(c1)c(=O)c(S(=O)(=O)c1ccc(F)cc1)cn2CC(=O)Nc1ccc(Cl)cc1	i
72	CCc1ccc(N2CCCn3c2nc2c3c(=O)n(CCN3CCOCC3)c(=O)n2C)cc1	i
64	COc1ccc(CC(=O)Nc2ccc(Cn3cnc(C(=O)Nc4ccc(C)c(Cl)c4)c3)cc2)cc1	i

The main list resumes with the two entries that preceded the break.
cpd	structure	GIRK2 activ
111	Cc1nn(-c2ccc(F)cc2)c2ncc(C(=O)NCc3ccccc3Cl)c(Cl)c12	i
112	O=C(c1c(F)cccc1F)N1CCN(c2cc(-n3cccc3)ncn2)CC1	i
113	CC(C)(C)c1cc(NC(=O)c2cnn3c2OCCC3)on1	i
114	O=C(NCc1cc(-c2cccs2)n(C2CCCC2)n1)c1ccccc1Br	i
115	COc1cccc(/C=C2\Oc3cc(OC(=O)C(C)(C)C)ccc3C2=O)c1	i
116	O=C(NCCCn1ncccc1=O)c1ccc2nsnc2c1	i
117	COc1cc(/C=C2\SC(=S)N(c3ccc(Cl)c(Cl)c3)C2=O)cc(OC)c1OC	i
118	Cc1ccc(S(=O)(=O)c2nc(SCC(=O)N3CCCCC3)sc2N2CCOCC2)cc1	i
119	CC(C)(C)OC(=O)N1CCC(NC(=O)C2CCN(c3nc4ccccc4[nH]c3=O)CC2)CC1	i
120	Cc1ccccc1-c1nc(-c2cn(CC(=O)Nc3ccc(Cl)cc3)cn2)no1	i
121	COCCn1c(-c2nc(C(=O)NCC3CCCO3)cs2)cc2ccccc21 (configuration not stated)	i
122	Cc1nc2cc(NC(=O)c3cnn4c3OCCC4)ccc2s1	i
123	O=C(/C=C/c1ccco1)Nc1ccc2c(c1)N(C(=O)C1CC1)CC2	i
124	CC(=O)N1N=C(c2ccccc2NS(C)(=O)=O)CC1c1ccc2c(c1)OCO2 (configuration not stated)	i
125	COc1cc(NC(=O)Nc2nc(-c3cc(Cl)ccc3Cl)cs2)cc(OC)c1OC	i
126	CCc1ccc(OCCS(=O)(=O)N2CCN(c3cc(C)ncn3)CC2)cc1	i
